SmPrx2 inh: inhibitors of Schistosoma mansoni peroxiredoxin 2 | AID 448 | S. mansoni Prx2 activity coupled to TGR/GSH (TGR is thioredoxin glutathione reductase), NADPH fluorescence loss, qHTS; some inactives read as strong as hits | 65,000 compounds, 0.07% hits | Potency, µM; active means full or partial inhibition curve with a strong effect at the top dose; inconclusive means weaker partial or single-point curve; inactive means no accepted curve; also: series up to 57 µM; many of its hits are not listed in these tables
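Prx2 inhibition was measured as reduced NADPH consumption when electrons flowed from NADPH through TGR and glutathione to Prx2 and H2O2. Plates were read kinetically over 8 min; enzyme reagents were held at 4 deg C during dispensing.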
LT uptake inh: blocks cellular internalization of anthrax lethal toxin; Cells, anthrax lethal toxin internalization, FRET ratio (460/530); Potency, µM (titrated, usually from 40 µM), inactives show at the highest dose activity change, negative = inhibition, usual class: inhibitors; 70,000 compounds, 0.67% hits; AID 912; active = well fitted falling ratio curve with the 530 nm signal flat; inconclusive = other ratio curves, or a change in one channel alone; inactive = flat curves in the ratio and both channels; the % refers to the ratio; also: % is scaled to controls: 0 for no effect and ±100 for the full control effect; nearly all actives have a fitted effect of over 50% in size; tested in ME-180 cells; beta-lactamase reporter
Starred values were filed as active, the others as inactive; [ ] = another dose, or the depositor's remark. Potency is read from the fitted curve at half-maximal effect. A portion of the library (hit frequency here may not be typical).

`CCOc1ccccc1N1CCN(S(=O)(=O)c2ccc3c4c(cccc24)C(=O)N3)CC1` gave SmPrx2 inh >57 and LT uptake inh inconclusive.
CC(C)CC(=O)Nc1cccc(-c2cn3ccsc3n2)c1 was read as SmPrx2 inh >57 and LT uptake inh -16.1%.
Cc1ccc(Cn2c(=O)c3ccccc3n3c(SCC(=O)N4CCCCC4C)nnc23)cc1 (configuration not stated) was read as SmPrx2 inh >57 and LT uptake inh -4.6%.
Screening COc1cc2c(cc1NC(=O)C1CCCO1)oc1ccccc12 (configuration not stated) returned SmPrx2 inh >57 and LT uptake inh -16.3%.
Screening O=C(NCc1cn2ccsc2n1)c1c(F)cccc1Cl returned SmPrx2 inh >57 and LT uptake inh -5.8%.
For COc1ccc(C2CC(c3ccc(Br)cc3)Nc3nc(N)nn32)cc1 (configuration not stated) the results were SmPrx2 inh >57 and LT uptake inh -10.8%.
Screening COC(=O)c1ccc(CSc2nnnn2Cc2ccccc2)cc1 returned SmPrx2 inh >57 and LT uptake inh -2.6%.
Screening CN(C)c1ncc2nc(CCc3ccccc3)c(=O)n(Cc3ccc(F)cc3)c2n1 returned SmPrx2 inh >57 and LT uptake inh -0.3%.
`O=C(Cn1cnc2c(oc3ccccc32)c1=O)c1ccccc1` gave SmPrx2 inh >57 and LT uptake inh -15.5%.
`COc1ccc(CN(CC(=O)NCc2ccco2)C(=O)CCC(=O)Nc2nccs2)cc1` gave SmPrx2 inh >57 and LT uptake inh 10.4%.
`C=CCOC(=O)C(C(C)=O)C(NC(=O)OC)c1ccc(F)cc1` (configuration not stated) gave LT uptake inh -4.5%[8 µM].
For Cc1noc(C)c1CSc1nc2ccccc2c(=O)n1-c1ccc(F)cc1F the results were SmPrx2 inh >57 and LT uptake inh -15.8%.
For CCOc1ccc(OCC)c2sc(C)nc12 the results were SmPrx2 inh >57 and LT uptake inh -2.9%.
`CCN1CCCC1CNC(=O)Cn1cnc2sc(C)c(S(=O)(=O)N3CCC(C)CC3)c2c1=O` (configuration not stated) gave SmPrx2 inh >57 and LT uptake inh 20.8%.
Screening Cn1c(=O)cc(SCC(=O)NCC2COc3ccccc3O2)c2ccccc21 (configuration not stated) returned SmPrx2 inh >57 and LT uptake inh 8.3%.
For CC(O)c1cccc(NC(=O)CCC(=O)O)c1 (configuration not stated) the results were LT uptake inh -3.7%.
N#Cc1ccc(CN2CCC3(CC2)CCN(C(=O)c2csnn2)CC3)cc1 was read as SmPrx2 inh >57 and LT uptake inh inconclusive.
For CC(=O)NCC(=O)OC(C)C(=O)Nc1ccc(C(C)=O)cc1 (configuration not stated) the results were SmPrx2 inh >57 and LT uptake inh 4.4%.
`O=C1OCc2cc(NS(=O)(=O)c3cccs3)ccc21` gave SmPrx2 inh >57 and LT uptake inh -3.1%.
Cc1cc(OCc2nn[nH]n2)c2c3c(c(=O)oc2c1)CCC3 was read as SmPrx2 inh >57 and LT uptake inh -4.6%.
Screening CC(=O)Oc1ccc(/C=c2\sc3ncnn3c2=O)cc1 returned SmPrx2 inh >57 and LT uptake inh -1.4%.
Screening Cc1ccc(C)c(O)c1 returned LT uptake inh 3.6%.
For CC(=O)c1c(C)n(CCCOC(C)C)c2ccc(O)cc12 the results were SmPrx2 inh inconclusive and LT uptake inh -0.3%.
`COc1ccccc1-c1cc(C(F)(F)F)nc(S(=O)(=O)CCCC(=O)NC(C)C)n1` gave SmPrx2 inh >57 and LT uptake inh inconclusive.
Screening COc1ccccc1NC(=O)CNC(=O)c1ccccc1 returned SmPrx2 inh >57 and LT uptake inh 0.7%.
`CCSc1nnc(-c2ccc(OC)cc2)o1` gave SmPrx2 inh >57 and LT uptake inh -10.8%.
`CCn1c(COc2cccc(C)c2)nnc1SCC(=O)Nc1cccc(C(=O)OC)c1` gave SmPrx2 inh >57 and LT uptake inh -15.4%.
For COc1ccc(CC2C(=O)NC(=O)N(c3ccccc3)C2=O)c(OC)c1 (configuration not stated) the results were LT uptake inh -9.3%.
CSc1nc2c(c(=O)n1-c1ccc(C)cc1)SCC2 was read as SmPrx2 inh >57 and LT uptake inh -15.1%.
Cc1cccc2cc(CN(Cc3nnnn3Cc3ccccc3)C3CCCC3)c(=O)[nH]c12 was read as SmPrx2 inh >57 and LT uptake inh -20.6%.
Screening C=CCSc1nc2c(cc1C#N)CCC2 returned SmPrx2 inh >57 and LT uptake inh inconclusive.
Screening CCOCC(=O)NC1CCSC1=O (configuration not stated) returned SmPrx2 inh >57 and LT uptake inh -4.5%.
`NCCCCCCNS(=O)(=O)c1ccc2c(Cl)cccc2c1` gave SmPrx2 inh >57 and LT uptake inh inconclusive.
CCOc1ccc2nc(N3CCCC(C(=O)NCCCN4CCOCC4)C3)sc2c1 (configuration not stated) was read as SmPrx2 inh >57 and LT uptake inh -7.7%.
CC(SCC(=O)Nc1ccc(S(=O)(=O)N2CCCCC2)cc1)C(=O)O (configuration not stated) was read as SmPrx2 inh >57 and LT uptake inh -7.1%.
Screening N#CCCn1cc(C(CC(=O)c2ccc(Br)cc2)C(=O)O)c2ccccc21 (configuration not stated) returned SmPrx2 inh >57 and LT uptake inh 11.3%.
For O=C1c2ccccc2C(=O)c2c(NC3CCCCC3)ccc(Nc3ccc(S(=O)(=O)O)cc3)c21 the results were SmPrx2 inh >57 and LT uptake inh -11.5%[8 µM].
Screening Oc1ccc(Cn2c(-c3ccc(O)cc3)nc3ccccc32)cc1 returned SmPrx2 inh >57 and LT uptake inh 3.2%[8 µM].
For COC(=O)c1sc(=S)sc1C(=O)OC the results were SmPrx2 inh >57 and LT uptake inh -10.9%.
For O=C1Nc2ccccc2C12OCCS2 (configuration not stated) the results were SmPrx2 inh >57 and LT uptake inh -3.0%.
For c1ccc2c(c1)oc1c(N3CCOCC3)ncnc12 the results were SmPrx2 inh >57 and LT uptake inh 9.7%.
COc1ccc(N2CCN(C(=O)C(OC(C)=O)c3ccccc3)CC2)cc1 (configuration not stated) was read as SmPrx2 inh >57 and LT uptake inh -4.3%.
Screening CC(C)[C@H](NC(=O)NCCc1ccc(Cl)cc1)C(=O)O returned SmPrx2 inh >57 and LT uptake inh 2.3%.
Screening COc1nc(NC23CC4CC(CC(C4)C2)C3)nc(OC)n1 returned LT uptake inh 4.0%.
For CC(C)(c1ccc(O)cc1)c1ccc(O)cc1 the results were LT uptake inh inconclusive.
For C=CCNc1nc2c(c(=O)[nH]c(=O)n2C)n1Cc1cccc(C)c1 the results were SmPrx2 inh >57 and LT uptake inh 11.3%.
For Cc1ccc(S(=O)(=O)CCC(=O)OCC(=O)N2CC(=O)Nc3ccccc32)cc1 the results were SmPrx2 inh >57 and LT uptake inh 3.4%.
CCOc1cccc(NC(=O)C2CC(=O)N(C)C2)c1 (configuration not stated) was read as SmPrx2 inh >57 and LT uptake inh 13.8%.
`O=C(NCc1ccc2c(c1)OCO2)c1ccccn1` gave SmPrx2 inh >57 and LT uptake inh inconclusive.
For CCOc1ccc(OCC)c(NC(=O)C2CCCN(c3nc(C)cc(C)n3)C2)c1 (configuration not stated) the results were SmPrx2 inh >57 and LT uptake inh -0.4%.
CC(C)C[C@H]1C(=O)N2CCC[C@@H]2[C@]2(O)O[C@](NC(=O)[C@H]3C=C4c5cccc6[nH]c(Br)c(c56)C[C@H]4N(C)C3)(C(C)C)C(=O)N12 was read as SmPrx2 inh >57 and LT uptake inh -1.5%[3.58 µM].
CC(=O)N(C[C@@H](C)C(=O)O)c1c(I)cc(I)c(N)c1I was read as SmPrx2 inh >57 and LT uptake inh 13.2%[3.58 µM].
`CCCCNC(=O)C1CCCN(S(=O)(=O)c2ccc(-n3cnnn3)cc2)C1` (configuration not stated) gave SmPrx2 inh >57 and LT uptake inh -9.4%.
CN(c1ccc(C(=O)O)cc1)S(=O)(=O)c1ccc(Cl)cc1 was read as SmPrx2 inh >57 and LT uptake inh -8.2%.
`COc1ccc(OC)c(NC(=O)C2CCCCC2C(=O)O)c1` (configuration not stated) gave SmPrx2 inh >57 and LT uptake inh -0.7%.
For C=CCC1C=CC(OC(=O)OCC)C(COC(=O)OCC)O1 (configuration not stated) the results were LT uptake inh -20.4%[8 µM].
Cc1ccc(NS(=O)(=O)c2ccc(OCC(=O)NCc3ccco3)cc2)cc1 was read as SmPrx2 inh >57 and LT uptake inh -12.3%.
For Cc1cc(=O)oc2c1c(C)nn2-c1nn[nH]n1 the results were SmPrx2 inh >57 and LT uptake inh 0.3%.
For COc1ccc2nc(C)c3c(c2c1)OC(C)C3 (configuration not stated) the results were LT uptake inh -3.8%.
Screening COC(=O)Cn1c(C)nc(=O)c(-c2ccccc2)c1C returned SmPrx2 inh >57 and LT uptake inh 4.0%.
Screening Cc1cc(C)c(C(=O)Nc2ccc(S(=O)(=O)Nc3onc(C)c3C)cc2)c(C)c1 returned SmPrx2 inh >57 and LT uptake inh -5.5%.
Screening c1cc(NNc2cccc(-c3nn[nH]n3)c2)cc(-c2nn[nH]n2)c1 returned SmPrx2 inh >57 and LT uptake inh -4.4%[8 µM].
Screening CCOc1ccc(C2C(C(=O)OC)=C(C)N=C3SCCC(=O)N32)cc1OCC (configuration not stated) returned LT uptake inh inconclusive.
Screening CCCOC(=O)Nc1ccc(S(=O)(=O)Nn2cnnc2)cc1 returned SmPrx2 inh >57 and LT uptake inh -11.3%.
For COC(=O)c1ccsc1NC(=O)CSc1nnnn1-c1ccccc1SC the results were SmPrx2 inh >57 and LT uptake inh -3.5%.
Cc1ccccc1-c1nc(NCc2cccnc2)c2ccccc2n1 was read as SmPrx2 inh >57 and LT uptake inh inconclusive.
`O=C1c2ccccc2S(=O)(=O)N1CC1CC(c2ccccc2)=NO1` (configuration not stated) gave SmPrx2 inh >57 and LT uptake inh -15.6%.
For COc1ccc2oc(=O)c(C(=O)N3CCN(c4ccccc4)CC3)cc2c1 the results were SmPrx2 inh >57 and LT uptake inh -2.1%.
c1ccc(N2CC3(CCNCC3)C2)cc1 was read as SmPrx2 inh >57 and LT uptake inh -8.7%.
Screening O=C(O)c1cccc(COCC(F)(F)C(F)F)c1 returned SmPrx2 inh >57 and LT uptake inh -5.9%.
N#CCCn1c(SCC(=O)N2CCN(S(=O)(=O)c3ccccc3)CC2)nc2ccccc21 was read as SmPrx2 inh >57 and LT uptake inh 13.3%.
Screening O=C(NCc1ccc2c(c1)OCO2)C1CCN(Cc2cnn(-c3ccccc3)c2-n2cccc2)CC1 returned SmPrx2 inh >57 and LT uptake inh inconclusive.
For O=C(CSc1nnnn1C1CCCC1)N1CCN(C(=O)c2ccco2)CC1 the results were SmPrx2 inh >57 and LT uptake inh -4.7%.
C=CCn1c(=O)/c(=C/c2cc(OC)c(OC)c(OC)c2)s/c1=C(/C#N)c1nc2ccccc2n1C was read as SmPrx2 inh >57 and LT uptake inh inconclusive.
`COc1ccc(-n2c(SCC#N)nnc2-c2ccc(NS(=O)(=O)c3ccc(C)cc3)cc2)cc1` gave SmPrx2 inh >57 and LT uptake inh inconclusive.
`Cc1ccccc1OCC1CN(CN2CCOCC2)C(=O)O1` (configuration not stated) gave SmPrx2 inh >57 and LT uptake inh 12.2%.
`O=C(COC(=O)c1cc(S(=O)(=O)N2CCOCC2)cs1)c1ccccc1` gave SmPrx2 inh >57 and LT uptake inh -1.0%.
Screening O=C(CSc1nnc(-c2ccc(NS(=O)(=O)c3ccccc3)cc2)o1)NCC1CCCO1 (configuration not stated) returned LT uptake inh 2.6%.
COC(=O)c1cn(C)c2ccc(S(=O)(=O)N3CCCCC3)cc2c1=O was read as SmPrx2 inh >57 and LT uptake inh -6.6%.
For Cc1cnc(CNc2ccnc(-c3ccc(N(C)C)cc3)n2)cn1 the results were SmPrx2 inh >57 and LT uptake inh 0.6%.
For COc1ccc2cc(CN(CCCN3CCOCC3)Cc3nnnn3C3CCCCC3)c(=O)[nH]c2c1 the results were SmPrx2 inh >57 and LT uptake inh -27.2%.
Cc1nn(Cc2ccccc2)c(C)c1NC(=O)CCC(=O)O was read as SmPrx2 inh >57 and LT uptake inh -21.0%.
`CCCn1c(C)cc(C(=O)COC(=O)c2ccc(Cl)c(S(=O)(=O)N3CCCC3)c2)c1C` gave SmPrx2 inh >57 and LT uptake inh inconclusive.

High-throughput results as filed in PubChem BioAssay.
